FEN1 inh: blocks human flap endonuclease 1 | Recombinant FEN1 flap cleavage, fluorescence, 15 min | Potency, µM (top dose mostly 114 µM), without a hit: at the highest dose activity change, negative = inhibition, hits mostly inhibitors | 390,000 tested, 0.35% active | AID 588795; note: nearly all actives have a fitted effect of over 65% in size
Target sequence (P39748 whole entry, looked up): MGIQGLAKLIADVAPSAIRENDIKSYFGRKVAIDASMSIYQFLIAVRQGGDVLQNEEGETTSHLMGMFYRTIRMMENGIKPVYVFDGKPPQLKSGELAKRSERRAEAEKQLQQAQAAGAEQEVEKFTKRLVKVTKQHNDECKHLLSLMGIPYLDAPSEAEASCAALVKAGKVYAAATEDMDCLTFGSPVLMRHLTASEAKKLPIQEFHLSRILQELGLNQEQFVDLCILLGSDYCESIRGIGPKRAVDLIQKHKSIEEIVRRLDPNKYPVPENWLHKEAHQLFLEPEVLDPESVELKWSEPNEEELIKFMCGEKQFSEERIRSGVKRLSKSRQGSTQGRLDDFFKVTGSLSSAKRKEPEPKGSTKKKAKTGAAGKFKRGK
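Potency values derive from four-parameter Hill fits of normalized qHTS data. The reaction used 10 nM FEN1 preincubated 15 min at room temperature with compound, then 50 nM DNA substrate, read at 0 and 15 min.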
N370S GC mod: inhibitors or activators of N370S glucocerebrosidase for Gaucher disease | P04062 | N370S GC spleen homogenate, 4MU-glucoside fluorescence | Potency, µM (top dose mostly 59.4 µM), for inactives: top-dose activity change, negative = inhibition, actives largely listed as inhibitors | 330,000 tested, 0.092% active | AID 2101;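 note: 0% = full enzyme activity and -100% = no enzyme basal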
The depositor's hits bear a star; ? = inconclusive; nt = not tested or not shown; & = joins results of further samples; [ ] = dose if it differs, or a comment. Calls come from the whole dose curve; as a rule, active = well fitted curve in the direction sought with a large enough effect; inconclusive = small, poorly fitted or top-dose-only effect, or another doubt; inactive = no such curve, though single readings can be large; an effect the other way counts as inactive or inconclusive. Unless noted, % is set by controls: 0 for no effect and ±100 for the full control effect; potency is the fitted concentration of half-maximal effect. The list is partial; most or all hits stand in other tables.

(1) Cc1cc(C)cc(N2C(=O)C3CC=CCC3C2=O)c1 (stereo not drawn)
  FEN1 inh = 5% | N370S GC mod = -21%
(2) Cc1cccc(CCNC(=O)c2cc(S(=O)(=O)N3CCCCC3)c[nH]2)c1
  FEN1 inh = 3%&-5% | N370S GC mod = -4%
(3) COC(=O)CCC(=O)OC1(C)C(=O)C2=CN(CC3CC3)C(c3ccc(OC)cc3)=CC2=C(Br)C1=O (stereo not drawn)
  FEN1 inh = 8% | N370S GC mod = -4%[12.8 µM]
(4) CCn1c(SCC(=O)Nc2nc(C)c(C)s2)nnc1-c1cccs1
  FEN1 inh = -9% | N370S GC mod = 13%
(5) O=C(NCCCn1ccnc1)c1ccc(Cl)cc1[N+](=O)[O-]
  FEN1 inh = -3% | N370S GC mod = 0%
(6) Cc1cc(C)n(CCc2nc(-c3cccs3)cs2)n1
  FEN1 inh = -2% | N370S GC mod = 6%
(7) COc1ccc(CCNC(=O)COc2ccc(S(=O)(=O)NC(C)C)cc2Cl)cc1OC
  FEN1 inh = 7% | N370S GC mod = -6%
(8) Cc1oc(-c2ccccc2F)nc1CSCC(=O)NCc1ccc2c(c1)OCO2
  FEN1 inh = -1% | N370S GC mod = 16%
(9) Cc1ccc(NC(=O)COCC(=O)Nc2ccc(F)cc2)cc1
  FEN1 inh = 27% | N370S GC mod = 3%
(10) Cn1c(CNC(=O)c2ccccc2F)cc2ccccc21
  FEN1 inh = -7% | N370S GC mod = 4%
(11) O=C(NCCCn1ccnc1)/C(=C\c1cccnc1)NC(=O)c1ccccc1F
  FEN1 inh = 15% | N370S GC mod = -18%
(12) COc1ccccc1C(=O)OCc1ccc2sc(C)nc2c1
  FEN1 inh = -2% | N370S GC mod = 2%
(13) Cc1ccc(Nc2c(-c3ccc(C)cc3)nc3cnccn23)cc1
  FEN1 inh = -20% | N370S GC mod = nt
(14) C/C(=N\O)c1ncc(C(F)(F)F)cc1Cl
  FEN1 inh = 4% | N370S GC mod = 0%
(15) CCOc1ncccc1C(=O)OCC(=O)Nc1ccc(C(C)C)cc1
  FEN1 inh = -21% | N370S GC mod = 7%
(16) CN1CCN(S(=O)(=O)c2ccc(N3CCN(C(c4ccccc4)c4ccccc4)CC3)nc2)CC1
  FEN1 inh = 6% | N370S GC mod = 12%
(17) CCOc1ccccc1/C=N/NC(=O)CNC(=O)c1ccc(S(=O)(=O)N2CCOCC2)cc1
  FEN1 inh = -1% | N370S GC mod = 0%
(18) CC(=O)Nc1c(C)cc(S(C)(=O)=O)cc1C
  FEN1 inh = -11% | N370S GC mod = 0%
(19) CCOC(=O)C1=C(C)NC(C)=C(C(=O)OCC)C1C(=O)OCC(=O)NCc1ccccc1
  FEN1 inh = -1% | N370S GC mod = nt
(20) Cn1c(=O)[nH]c(=O)c2c1nc(N1CCN(c3ccccc3)CC1)n2CCSc1ncccn1
  FEN1 inh = -6% | N370S GC mod = 0%
(21) CC(=O)N1CCN=C1SCc1ccc(C)cc1
  FEN1 inh = 21% | N370S GC mod = -11%
(22) Cc1ccc(C(=O)Nc2nnc(S(=O)(=O)N3CCCCCC3)s2)cc1
  FEN1 inh = 16%&-20% | N370S GC mod = -5%
(23) Nc1[nH]nc2nc(N3CCCC3)nc(-c3ccccc3)c12
  FEN1 inh = 8% | N370S GC mod = -5%
(24) CCOC(=O)C1CCN(C(=O)Cn2nc(C)n3c(cc4sccc43)c2=O)CC1
  FEN1 inh = -2% | N370S GC mod = nt
(25) O=C(NCc1ccccc1)C1CCN(C(=O)NCc2ccccc2)CC1
  FEN1 inh = -9% | N370S GC mod = 5%

Reprinted from the listing (17 entries):
(9) Cc1ccc(NC(=O)COCC(=O)Nc2ccc(F)cc2)cc1
  FEN1 inh = 27% | N370S GC mod = 3%
(10) Cn1c(CNC(=O)c2ccccc2F)cc2ccccc21
  FEN1 inh = -7% | N370S GC mod = 4%
(11) O=C(NCCCn1ccnc1)/C(=C\c1cccnc1)NC(=O)c1ccccc1F
  FEN1 inh = 15% | N370S GC mod = -18%
(12) COc1ccccc1C(=O)OCc1ccc2sc(C)nc2c1
  FEN1 inh = -2% | N370S GC mod = 2%
(13) Cc1ccc(Nc2c(-c3ccc(C)cc3)nc3cnccn23)cc1
  FEN1 inh = -20% | N370S GC mod = nt
(14) C/C(=N\O)c1ncc(C(F)(F)F)cc1Cl
  FEN1 inh = 4% | N370S GC mod = 0%
(15) CCOc1ncccc1C(=O)OCC(=O)Nc1ccc(C(C)C)cc1
  FEN1 inh = -21% | N370S GC mod = 7%
(16) CN1CCN(S(=O)(=O)c2ccc(N3CCN(C(c4ccccc4)c4ccccc4)CC3)nc2)CC1
  FEN1 inh = 6% | N370S GC mod = 12%
(17) CCOc1ccccc1/C=N/NC(=O)CNC(=O)c1ccc(S(=O)(=O)N2CCOCC2)cc1
  FEN1 inh = -1% | N370S GC mod = 0%
(18) CC(=O)Nc1c(C)cc(S(C)(=O)=O)cc1C
  FEN1 inh = -11% | N370S GC mod = 0%
(19) CCOC(=O)C1=C(C)NC(C)=C(C(=O)OCC)C1C(=O)OCC(=O)NCc1ccccc1
  FEN1 inh = -1% | N370S GC mod = nt
(20) Cn1c(=O)[nH]c(=O)c2c1nc(N1CCN(c3ccccc3)CC1)n2CCSc1ncccn1
  FEN1 inh = -6% | N370S GC mod = 0%
(21) CC(=O)N1CCN=C1SCc1ccc(C)cc1
  FEN1 inh = 21% | N370S GC mod = -11%
(22) Cc1ccc(C(=O)Nc2nnc(S(=O)(=O)N3CCCCCC3)s2)cc1
  FEN1 inh = 16%&-20% | N370S GC mod = -5%
(23) Nc1[nH]nc2nc(N3CCCC3)nc(-c3ccccc3)c12
  FEN1 inh = 8% | N370S GC mod = -5%
(24) CCOC(=O)C1CCN(C(=O)Cn2nc(C)n3c(cc4sccc43)c2=O)CC1
  FEN1 inh = -2% | N370S GC mod = nt
(25) O=C(NCc1ccccc1)C1CCN(C(=O)NCc2ccccc2)CC1
  FEN1 inh = -9% | N370S GC mod = 5%

Continuation:
(26) NC(=S)N/N=C\c1c(OCc2ccccc2Cl)ccc2ccccc12
  FEN1 inh = -2% | N370S GC mod = 9%
(27) CCOC(=O)CSc1nc2nc(C)cc(C)n2n1
  FEN1 inh = -12% | N370S GC mod = 11%
(28) CN(CCCNC(=O)CCCOc1cc(=O)n(C)c2ccccc12)Cc1ccccc1
  FEN1 inh = -4% | N370S GC mod = -13%
(29) CN1C(=O)N(CC(=O)N2CCN(S(=O)(=O)c3ccc(Cl)s3)CC2)C(=O)C12CCCCC2
  FEN1 inh = 0% | N370S GC mod = nt
(30) CCN1CC=C2C(C1)C(c1ccc(Cl)s1)C(C#N)=C(N)C2(C#N)C#N (stereo not drawn)
  FEN1 inh = -22% | N370S GC mod = -5%
(31) Cc1ccc(N2C(=O)c3ccc(C(=O)N4CCN(c5cccc(C)c5C)CC4)cc3C2=O)cc1
  FEN1 inh = 15% | N370S GC mod = 0%
(32) Cc1ccc(Nc2n[nH]c(C)c2[N+](=O)[O-])c(C)c1
  FEN1 inh = 14% | N370S GC mod = 0%
(33) O=C(CCc1ccccc1)NNC(=O)c1cccc(F)c1
  FEN1 inh = 14% | N370S GC mod = 9%
(34) Nc1cccn2c(-c3ccc(Cl)cc3)cnc12
  FEN1 inh = -25% | N370S GC mod = -5%
(35) CCN1CCN(C(=O)C2CCCN(S(=O)(=O)c3cccc4nsnc34)C2)CC1 (stereo not drawn)
  FEN1 inh = -1% | N370S GC mod = -8%
(36) CCc1ncc(CN2CCC(C(=O)Nc3ccc(-n4nc(C)cc4C)cc3)CC2)cn1
  FEN1 inh = -3% | N370S GC mod = -16%
(37) O=C(NCc1ccco1)c1ccc(Br)c(S(=O)(=O)N2CCCCC2)c1
  FEN1 inh = -7% | N370S GC mod = 8%
(38) Cc1ccc(C(C)C)c(OCC(=O)Nn2c(=O)[nH]c3ccccc3c2=O)c1
  FEN1 inh = -9% | N370S GC mod = 11%
(39) O=C(O)CP(=O)(c1ccccc1)c1ccccc1
  FEN1 inh = 1% | N370S GC mod = -1%
(40) O=c1[nH]c2cccnc2n1-c1ccc([N+](=O)[O-])cc1
  FEN1 inh = 15% | N370S GC mod = 4%
(41) NC1=NC(=O)C(CC(=O)NCc2ccccc2)S1 (stereo not drawn)
  FEN1 inh = -3% | N370S GC mod = 4%
(42) O=C(CN1C(=O)NC(Cc2c[nH]c3ccccc23)C1=O)NCCc1ccc(F)cc1 (stereo not drawn)
  FEN1 inh = 10% | N370S GC mod = -20%
(43) Cc1cnccc1CN(C)Cc1nc(Cc2ccccc2Cl)no1
  FEN1 inh = -2% | N370S GC mod = 11%
(44) Cc1ccc(Cn2nc(C)c(NC(=O)CSc3n[nH]c(C)c3[N+](=O)[O-])c2C)cc1
  FEN1 inh = -7% | N370S GC mod = -8%
(45) C/C(=C(/CCO)SSC[C@@H]1CCCO1)N(C=O)Cc1cnc(C)nc1N
  FEN1 inh = nt | N370S GC mod = 10%[21.6 µM]
(46) O=C(COc1ccc(-c2nnco2)cc1)N1CCOCC1
  FEN1 inh = 2% | N370S GC mod = nt
(47) Cc1ccc(S(=O)(=O)/N=C(/Nc2c(C)n(C)n(-c3ccccc3)c2=O)c2ccc(Cl)cc2)cc1
  FEN1 inh = -4% | N370S GC mod = 7%
(48) OC[C@@H]1CCCN1Cc1nc(-c2cccs2)no1
  FEN1 inh = 3% | N370S GC mod = 9%
(49) COc1cc(O)c(C(=O)c2ccccc2)cc1O
  FEN1 inh = nt | N370S GC mod = 12%
(50) COc1ccc(C(=O)/C=C/Nc2ccc(S(=O)(=O)Nc3nc(C)cc(C)n3)cc2)c(OC)c1
  FEN1 inh = 2% | N370S GC mod = -1%

(51) CCOC(=O)c1c(NC(=O)CSc2nnc(CN3CCOCC3)n2C)sc2c1CCCC2
  FEN1 inh = 1% | N370S GC mod = 7%
(52) Cc1noc(NS(=O)(=O)c2ccc(NC(=O)C34CC5CC(C3)CC(n3cnc(Br)n3)(C5)C4)cc2)c1C
  FEN1 inh = 2% | N370S GC mod = 18%
(53) O=C(NN1CCOCC1)c1cc(-c2cccs2)nc2ccccc12
  FEN1 inh = 1% | N370S GC mod = 18%
(54) CN(C)c1nc(-c2ccccc2C(F)(F)F)nc2ccccc12
  FEN1 inh = nt | N370S GC mod = 1%
(55) O=c1oc(-c2ccc(F)cc2)nc2ccsc12
  FEN1 inh = -14% | N370S GC mod = 4%
(56) COc1ccc(N2CCN(S(=O)(=O)c3ccc4c(c3)CCCC4)CC2)c([N+](=O)[O-])c1
  FEN1 inh = -17% | N370S GC mod = 6%
(57) Cc1nnc(SCc2nc3ccccc3nc2C)s1
  FEN1 inh = -1% | N370S GC mod = 21%
(58) CN(C)/C=C1\C(=O)N(C)N=C1C(F)(F)F
  FEN1 inh = 2% | N370S GC mod = -6%
(59) CCOc1ccc2nc(NC(=O)CSc3nc4c(c(=O)n(C)c(=O)n4C)n3CC)sc2c1
  FEN1 inh = 1% | N370S GC mod = 5%
(60) CCOC(=O)c1ccc(NC(=O)COc2ccccc2OC)cc1
  FEN1 inh = -5% | N370S GC mod = 22%
(61) Cc1ccccc1OCc1nc(-c2ccc(-n3cccc3)cc2)no1
  FEN1 inh = -17% | N370S GC mod = 14%
(62) Cn1c(Cc2ccccc2)nnc1SCC(=O)c1cccs1
  FEN1 inh = -2% | N370S GC mod = -1%
(63) O=c1[nH][nH]c(-c2ccccc2)c1C=Nc1ccc(C(F)(F)F)cc1
  FEN1 inh = -4% | N370S GC mod = -2%
(64) O=C(COC(=O)CCC(=O)c1ccc(F)cc1)NCc1ccccc1Cl
  FEN1 inh = -8% | N370S GC mod = nt
(65) COc1ccc(CNC(=O)Cn2c(=O)n3nc(-c4ccc(OC)cc4)nc3c3ccccc32)cc1
  FEN1 inh = -5% | N370S GC mod = nt
(66) CN(CC(=O)NCc1ccc2c(c1)OCO2)S(=O)(=O)c1ccc(Cl)cc1
  FEN1 inh = 11% | N370S GC mod = nt
(67) O=C(/C=C/c1ccc2c(c1)OCO2)NCCSCc1cccc(Cl)c1
  FEN1 inh = -7% | N370S GC mod = 14%
(68) CCOc1ccccc1NC(=O)COC(=O)c1ccc(S(=O)(=O)N2CCCC2)cc1
  FEN1 inh = -8% | N370S GC mod = -2%
(69) Brc1ccc2ncnc(Nc3ccc(N4CCOCC4)cc3)c2c1
  FEN1 inh = ? | N370S GC mod = -12%
(70) Cc1cccc(NC(=O)c2cc(-c3cc(Cl)ccc3O)n[nH]2)c1
  FEN1 inh = 3% | N370S GC mod = -20%
(71) C=CCn1c(CCCNC(=O)c2ccccc2OC)nc2ccccc21
  FEN1 inh = -10% | N370S GC mod = 0%
(72) CNc1oc(C)nc1S(=O)(=O)c1ccccc1
  FEN1 inh = 7% | N370S GC mod = 10%
(73) O=C1c2ccccc2C(=O)N1OS(=O)(=O)c1ccc(F)cc1
  FEN1 inh = -3% | N370S GC mod = -1%
(74) O=C(CCCCCN1C(=O)C2C3C=CC(C3)C2C1=O)Nc1nccs1 (stereo not drawn)
  FEN1 inh = 3% | N370S GC mod = -7%
(75) O=C(O)CN1C(=O)CC(c2ccccc2)CC1=O
  FEN1 inh = 45%[activator] | N370S GC mod = -12%
(76) COc1cccc(OCc2nnc(-c3cccs3)o2)c1
  FEN1 inh = nt | N370S GC mod = -19%
